Compound activity deposited in PubChem by Broad Institute.
Ecoli rRNA inh – inhibitors of bacterial rRNA selective over humanized ribosomes. E. coli WT GFP vs humanized-ribosome RFP mutants, fluorescence, 24 h; hits give low values; DMSO median 0, no signal -100. GFP signal change (wild-type ribosome), % (test concentration not listed). actives 1.6% (n = 350,000). AID 720706;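 active = significant combined selectivity score with lowered wild-type GFP, culture density cut under 30%, mutant RFP and density less affected; inactive = any of these conditions unmet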; note: one replicate is shown; some compounds called inactive have numbers as strong as hits
FGF22 binding – FGF22 (human) thermal shift binding; Q9HCT0; recombinant FGF22 thermal shift, SYPRO orange fluorescence; percent of sucrose octasulfate shift, DMSO zero; calls only at 9.99 µM; AID 651658; actives 1.5% (n = 340,000);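 active = melting point raised past a set limit in the mean and every replicate; three in four hits are not shown here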
Target sequence (Q9HCT0 whole entry, looked up): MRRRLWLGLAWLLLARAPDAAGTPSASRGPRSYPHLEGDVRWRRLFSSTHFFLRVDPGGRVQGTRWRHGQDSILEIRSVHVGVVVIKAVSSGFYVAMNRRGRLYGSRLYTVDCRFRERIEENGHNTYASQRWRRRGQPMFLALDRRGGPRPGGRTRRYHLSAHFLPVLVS
AF4-AF9 inh – MLL-AF4/AF9 protein interaction inhibition; inhibition, % at 10 µM; actives 0.47% (n = 350,000); AlphaScreen, biotin-AF4 peptide binding to FLAG-AF9;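 active = every replicate reaching a set inhibition limit, whatever the replicate mean, cut at about 25% in these data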;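 note: 0% = plate neutral control median and 100% = total signal loss; the record names both 10 and 1 µM as test concentration; the first replicate is given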
Target sequence (P42568 whole entry, looked up): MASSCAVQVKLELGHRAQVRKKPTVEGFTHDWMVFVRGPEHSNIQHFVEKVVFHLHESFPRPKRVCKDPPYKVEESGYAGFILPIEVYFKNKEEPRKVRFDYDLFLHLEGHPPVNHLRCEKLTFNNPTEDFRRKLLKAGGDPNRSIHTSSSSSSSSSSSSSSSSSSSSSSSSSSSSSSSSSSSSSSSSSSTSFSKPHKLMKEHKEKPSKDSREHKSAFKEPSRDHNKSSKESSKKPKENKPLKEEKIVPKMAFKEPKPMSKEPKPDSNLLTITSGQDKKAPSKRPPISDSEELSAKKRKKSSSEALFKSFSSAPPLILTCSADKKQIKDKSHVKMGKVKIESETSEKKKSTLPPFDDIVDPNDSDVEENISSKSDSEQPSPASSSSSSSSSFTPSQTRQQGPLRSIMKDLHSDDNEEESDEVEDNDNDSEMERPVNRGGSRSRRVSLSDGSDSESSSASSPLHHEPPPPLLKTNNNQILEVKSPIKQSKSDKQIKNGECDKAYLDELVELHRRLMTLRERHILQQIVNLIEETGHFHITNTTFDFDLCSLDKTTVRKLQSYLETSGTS
Ecoli rRNA inh OD600 – also measured in Ecoli rRNA inh; calls as there; OD600 change, %; measured here: OD600 growth;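 optical density of the mix in the first replicate; 0 = DMSO median and -100 = no signal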
Ecoli rRNA inh RFP – recorded beside Ecoli rRNA inh, whose call it bears; RFP signal change, %; measured here: RFP humanized mutant strains;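 first replicate; 0 = DMSO median and -100 = no signal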
* = called active by the depositor; i = inactive. This is a subset; rates above refer to the full screens.

SMILES | Ecoli rRNA inh | Ecoli rRNA inh OD600 | Ecoli rRNA inh RFP | FGF22 binding | AF4-AF9 inh
C[C@H](CO)N1C[C@H](C)[C@@H](CN(C)C(=O)Nc2ccc(F)cc2)Oc2c(NS(C)(=O)=O)cccc2C1=O | 2 | 7 | -2.3 | i | -2.6
CCCc1nc2ccc(Cl)cn2c1Cc1ccccc1OC | -47 | -79 | -15 | i | 1.2
CN1c2ccc(-c3ccccc3F)cc2[C@H]2[C@H](CCN2S(=O)(=O)c2ccccc2F)[C@H]1CO | 3 | 0 | 4.3 | i | 13
CN(C(=O)c1ccc(Cl)cc1)c1ccc(OCC(=O)Nc2cc(C(=O)O)ccc2Cl)cc1 | -7 | -32 | -3.8 | i | -7.3
CN1[C@H](C(=O)NCCN2CCCCC2)[C@@H](CO)[C@@H]2Cn3c(ccc(-c4ccc(F)cc4)c3=O)[C@@H]21 | 2 | 2 | -1.2 | i | -1.9
C(=C\c1ccccc1)/CN1CCN(C(c2cccc3ccccc23)c2nnnn2-c2ccc3c(c2)OCCO3)CC1 (centres undefined) | -7 | 3 | -2.8 | i | -9.4
COCCN(Cc1ccc(C)cc1)C(=O)[C@H]1O[C@@H](n2cnc3c(N)ncnc32)[C@H](O)[C@@H]1O | 2 | 2 | -1.8 | i | -0.6
C[C@H](CO)N1C[C@H](C)[C@@H](CN(C)C(=O)Nc2cccc3ccccc23)Oc2ccc(NC(=O)Nc3cccc4ccccc34)cc2C1=O | 1 | 7 | 0.4 | i | -0.7
CC1CCCN(CCCNC(=O)c2ccc3c(c2)N(Cc2cccc(Cl)c2)C(=O)c2ccccc2S3=O)C1 (centres undefined) | 6 | -26 | 20 | i | 15
COc1ccc2c3c([nH]c2c1)[C@@H](CO)N(C)CC31CN(C(=O)C2CC2)C1 | 3 | -3 | -2.0 | i | -2.8
COC(=O)[C@]12CCCCC=C1N(CCC1=CCCCC1)C(=O)[C@H](CC(=O)NCc1ccccc1)C2 | -11 | -14 | -0.7 | i | 1.8
COc1ccccc1CN(C)C[C@H]1OCc2cnnn2CCCC(=O)N([C@@H](C)CO)C[C@H]1C | -1 | 4 | -2.7 | i | -0.4
Cc1ccc(S(=O)(=O)NCC[C@H]2CC[C@@H](NC(=O)Nc3cccc(F)c3)[C@H](CO)O2)cc1 | -1 | -17 | -1.0 | i | 0.9
CCc1ccc([C@@H]2CC(=O)[C@@H]3CN(S(=O)(=O)c4ccc(Cl)cc4)[C@H](c4ccc(C)cc4)C[C@@H]3N2S(=O)(=O)c2ccc(C)cc2)cc1 | 11 | 16 | 2.2 | i | -2.0
C[C@H]1CN([C@@H](C)CO)C(=O)Cc2cc(NC(=O)c3ccncc3)ccc2O[C@H]1CN(C)Cc1ccncc1 | 0 | 0 | -0.4 | i | -3.0
CNC[C@H]1OCCCC[C@@H](C)Oc2ccc(NC(=O)C3CCCCC3)cc2C(=O)N([C@H](C)CO)C[C@H]1C | 1 | -3 | -2.9 | i | 2.8
Nc1nc2ccccc2n1S(=O)(=O)c1ccc([N+](=O)[O-])cc1 | 11 | 19 | -0.4 | i | -1.3
CNC[C@H]1Oc2c(NC(=O)Nc3ccc(C(F)(F)F)cc3)cccc2C(=O)N([C@@H](C)CO)C[C@H]1C | -58 | -83 | -16 | i | 5.0
C[C@@H]1CN([C@@H](C)CO)C(=O)c2cc(NC(=O)c3ccncc3)ccc2O[C@@H]1CN(C)Cc1ccc(Oc2ccccc2)cc1 | -5 | -59 | 39 | i | 12
Cc1ccc(C(=O)OCC(=O)Nc2ccc(C)c(S(=O)(=O)N3CCCCC3)c2)c(O)c1 | -6 | -1 | 0.1 | i | -0.8
Cc1ccc(S(=O)(=O)N[C@@H]2CC[C@@H](CCn3cc(C4CC4)nn3)O[C@H]2CO)cc1 | -1 | 5 | -1.6 | i | 0.4
C[C@H](CO)N1C[C@H](C)[C@H](CN(C)C(=O)NC2CCCCC2)Oc2ccc(NC(=O)C3CCCCC3)cc2C1=O | -3 | 2 | -4.7 | i | -9.3
C[C@H]1CCCCO[C@H](CN(C)S(=O)(=O)c2ccccc2)[C@@H](C)CN([C@@H](C)CO)C(=O)c2cc(NS(=O)(=O)c3ccccc3)ccc2O1 | -4 | 2 | 0.4 | i | -0.6
Cc1cccc(C)c1NC(=O)C1(C)CSCC(=O)N1CCc1c[nH]c2ccccc12 (centres undefined) | 2 | 6 | 8.9 | i | 0.2
CCS(=O)(=O)Nc1ccc2c(c1)C(=O)N(C)[C@H]1CC[C@H](CC(=O)N3CCN(C)CC3)O[C@@H]1CO2 | -2 | -1 | -2.6 | i | -1.5
O=C(Nc1ccc2c(c1)OCO2)N[C@H]1CC[C@@H](CCNC(=O)C2CC2)O[C@@H]1CO | -1 | -6 | -0.6 | i | -4.3
COc1ccc(S(=O)(=O)N(C)C[C@@H]2OCCCC[C@H](C)Oc3ccc(NS(=O)(=O)c4ccccc4)cc3C(=O)N([C@@H](C)CO)C[C@H]2C)cc1 | -2 | -1 | 0.5 | i | -1.1
O=C(Nc1cc(F)ccc1F)N[C@@H]1CC[C@@H](CC(=O)N2CCc3ccccc3C2)O[C@H]1CO | -13 | -22 | -2.5 | i | -2.7
CCOC(=O)C1(C)CCN1C(=O)c1ccc(SC(F)(F)F)cc1 (centres undefined) | 7 | 4 | 1.8 | i | -0.4
CN(C[C@@H]1N[C@@H](CO)[C@@H]1c1ccc(C2=CCCC2)cc1)S(C)(=O)=O | 3 | 4 | -0.2 | i | 0.3
N#C[C@@H]1[C@@H](c2ccccc2C2=CCCCC2)[C@H](CO)N1C(=O)c1cccc(F)c1 | -5 | -31 | -3.0 | i | -1.8
C[C@H]1CN([C@@H](C)CO)S(=O)(=O)c2ccc(-c3ccncc3)cc2O[C@@H]1CN(C)C(=O)c1ccc2c(c1)OCO2 | -7 | -14 | 1.1 | i | 0.9
C[C@@H]1CN([C@@H](C)CO)S(=O)(=O)c2ccc(C3=CCCC3)cc2O[C@H]1CN(C)C(=O)C1CCC1 | 0 | -12 | 0.6 | i | -2.1
C[C@@H]1CCCCO[C@@H](CN(C)C(=O)Cc2ccccc2)[C@@H](C)CN([C@@H](C)CO)C(=O)c2cc(NC(=O)Nc3ccc4c(c3)OCO4)ccc2O1 | 5 | 4 | 1.0 | i | 5.8
O=C(Nc1nccs1)[C@H]1[C@H](CO)[C@H]2Cn3c(ccc(-c4cccnc4)c3=O)[C@H]2N1CC1CCCC1 | -4 | -7 | 5.3 | i | 3.1
COc1ccc(NC(=O)Nc2ccc3c(c2)C(=O)N([C@H](C)CO)C[C@@H](C)[C@H](CN(C)C(=O)Nc2ccc(C(F)(F)F)cc2)O3)cc1 | -1 | -10 | -0.8 | i | -10
C[C@@H]1CN([C@@H](C)CO)C(=O)c2cc(NS(=O)(=O)c3ccccc3)ccc2O[C@H]1CN(C)C(=O)Nc1ccc2c(c1)OCO2 | 4 | 5 | 1.6 | i | -0.7
C[C@@H]1CN([C@@H](C)CO)C(=O)c2cc(C#CCN(C)C)cnc2O[C@H]1CN(C)Cc1ccncc1 | 2 | 3 | -0.6 | i | -2.3
COCC#Cc1cnc2c(c1)C(=O)N([C@@H](C)CO)C[C@@H](C)[C@@H](CN(C)C(=O)NC1CCCC1)O2 | 8 | 6 | -0.7 | i | -3.9
O=C(Nc1ccc2c(c1)OCCO2)C(c1ccnc2ccccc12)N1CCN(c2ccc(F)cc2)CC1 (centres undefined) | 0 | 7 | -5.0 | i | 1.7
C[C@H]1CN([C@@H](C)CO)C(=O)c2cc(C3=CCCC3)cnc2O[C@@H]1CN(C)C(=O)CN(C)C | 3 | 2 | -2.3 | i | -1.5
CCC(=O)N[C@@H]1CC[C@@H](CC(=O)NCc2ccc(OC)cc2)O[C@H]1CO | 1 | 6 | 0.5 | i | -3.6
Cc1nc(C(F)(F)F)ccc1C(=O)N1CCC1(C)C(=O)NS(=O)(=O)c1ccc2ccccc2c1 (centres undefined) | 3 | 12 | -0.4 | i | -6.7
Cc1noc(C)c1S(=O)(=O)Nc1ccc2c(c1)C(=O)N([C@@H](C)CO)C[C@@H](C)[C@@H](CN(C)Cc1ccc(C(=O)O)cc1)O2 | -1 | -5 | -1.8 | i | -3.3
C[C@@H]1CN([C@H](C)CO)C(=O)c2cc(NC(=O)Nc3ccc4c(c3)OCO4)ccc2O[C@@H](C)CCCCO[C@H]1CN(C)S(=O)(=O)c1ccccc1 | 1 | 5 | -4.4 | i | 3.2
COC(=O)C(CC(C)C)N(Cc1ccc(Br)cc1)S(=O)(=O)CCl (centres undefined) | -19 | -28 | -10 | i | -4.0
COC(=O)C[C@H]1CC[C@H]2[C@@H](COc3ccc(NS(=O)(=O)c4cccc(F)c4)cc3C(=O)N2C)O1 | 3 | -1 | 0.2 | i | 3.3
N#C[C@@H]1N[C@@H](CO)[C@H]1c1ccc(-c2ccccc2F)cc1 | -7 | -2 | -2.8 | i | -0.2
COCC(=O)N[C@@H]1C=C[C@@H](CC(=O)NCc2ccc(Cl)cc2)O[C@H]1CO | 5 | 6 | -1.7 | i | -0.1
COc1ccc2c3c(n(C)c2c1)[C@@H](CO)N(CC1CCOCC1)CC31CN(CC2CCOCC2)C1 | 2 | 1 | -3.6 | i | 5.0
(continued)
SMILES | Ecoli rRNA inh | Ecoli rRNA inh OD600 | Ecoli rRNA inh RFP | FGF22 binding | AF4-AF9 inh
COc1ccc(CN(C)C[C@H]2Oc3ccc(NC(=O)CCC(F)(F)F)cc3C(=O)N([C@@H](C)CO)C[C@H]2C)cc1 | 0 | 0 | -2.1 | i | -2.6
CN1C(=O)c2cc(NS(=O)(=O)c3ccc(F)cc3)ccc2OC[C@H]2O[C@H](CC(=O)O)CC[C@H]21 | 5 | 5 | 0.9 | i | 0.4
CCCNC(=O)C[C@H]1CC[C@H]2[C@@H](COC[C@@H](O)CN2C(=O)CC)O1 | -1 | 9 | -0.3 | i | -2.5
C[C@@H]1CN([C@@H](C)CO)C(=O)c2cccc(NC(=O)c3cnccn3)c2O[C@@H]1CN(C)CC1CC1 | 4 | 16 | -2.1 | i | -1.8
C/C=C/c1ccc2c(c1)O[C@@H](CN(C)C(=O)c1ccccn1)[C@@H](C)CN([C@H](C)CO)S2(=O)=O | -2 | 0 | -0.3 | i | 0.8
CCC(=O)Nc1ccc2c(c1)OC[C@H](C)N(C(=O)Cc1cccnc1)C[C@H](C)[C@H](OC)CN(C)C2=O | 4 | 2 | -1.5 | i | 2.4
CC1=C(C(=O)N2CCOCC2)CC(CC(=O)NC2CC2)C(=O)N1Cc1ccccc1 (centres undefined) | 6 | 10 | -2.0 | i | 1.7
CCCN1[C@@H]2c3ccc(C4=CCCCC4)c(=O)n3C[C@H]1[C@H](CO)[C@H]2C(=O)N1CCc2ccccc2C1 | -5 | -19 | 3.8 | i | 2.5
CC(C)NC(=O)N[C@H]1CC[C@@H](CCNC(=O)C2CCC2)O[C@@H]1CO | 2 | 6 | -3.1 | i | 0.1
O=c1[nH]c(=S)[nH]c2c1C(c1ccc(Cl)c(Cl)c1)OC(CCc1ccccc1)C2 (centres undefined) | 2 | 3 | 0.3 | i | -0.3
CCCCc1ccc(S(=O)(=O)NC(=O)C2(C)CCN2C(=O)C/C=C/c2ccccc2)cc1 (centres undefined) | -29 | -34 | -7.1 | i | -5.2
COc1ccccc1C#Cc1ccc2c(c1)O[C@H](CN(C)C(C)=O)[C@H](C)CN([C@H](C)CO)S2(=O)=O | -12 | -8 | 1.5 | i | 1.8
C[C@H]1CN([C@@H](C)CO)C(=O)c2cc(NC(=O)CCC(F)(F)F)ccc2O[C@H]1CN(C)S(C)(=O)=O | 2 | 2 | -1.6 | i | -2.4

Single entries from the entries so far.
Under Ecoli rRNA inh RFP, CCCCc1ccc(S(=O)(=O)NC(=O)C2(C)CCN2C(=O)C/C=C/c2ccccc2)cc1 (centres undefined) is entered as -7.1
Under Ecoli rRNA inh RFP, COc1ccccc1C#Cc1ccc2c(c1)O[C@H](CN(C)C(C)=O)[C@H](C)CN([C@H](C)CO)S2(=O)=O is entered as 1.5
Under Ecoli rRNA inh RFP, C[C@@H]1CN([C@@H](C)CO)C(=O)c2cccc(NC(=O)c3cnccn3)c2O[C@@H]1CN(C)CC1CC1 is entered as -2.1
Under Ecoli rRNA inh, CCC(=O)Nc1ccc2c(c1)OC[C@H](C)N(C(=O)Cc1cccnc1)C[C@H](C)[C@H](OC)CN(C)C2=O is entered as 4
Under Ecoli rRNA inh RFP, O=c1[nH]c(=S)[nH]c2c1C(c1ccc(Cl)c(Cl)c1)OC(CCc1ccccc1)C2 (centres undefined) is entered as 0.3
Under Ecoli rRNA inh OD600, CC1=C(C(=O)N2CCOCC2)CC(CC(=O)NC2CC2)C(=O)N1Cc1ccccc1 (centres undefined) is entered as 10
Under Ecoli rRNA inh, C[C@H]1CN([C@@H](C)CO)C(=O)c2cc(NC(=O)CCC(F)(F)F)ccc2O[C@H]1CN(C)S(C)(=O)=O is entered as 2

Record cards (already shown).
Results for CCCN1[C@@H]2c3ccc(C4=CCCCC4)c(=O)n3C[C@H]1[C@H](CO)[C@H]2C(=O)N1CCc2ccccc2C1 = Ecoli rRNA inh: -5; Ecoli rRNA inh OD600: -19; Ecoli rRNA inh RFP: 3.8; FGF22 binding: i; AF4-AF9 inh: 2.5
Results for CC(C)NC(=O)N[C@H]1CC[C@@H](CCNC(=O)C2CCC2)O[C@@H]1CO = Ecoli rRNA inh: 2; Ecoli rRNA inh OD600: 6; Ecoli rRNA inh RFP: -3.1; FGF22 binding: i; AF4-AF9 inh: 0.1
